# Bioassay records from PubChem.
# RE007 growth inh: qHTS Assay for Inhibitors of the HIV-1 protein Vpr. S. pombe RE007 Vpr strain, BacTiter-Glo ATP luminescence, 24 h; control for the full effect not named in the record. Potency, µM (series often up to 92.2 µM), without a hit: top-dose activity change, negative = less growth. 360,000 compounds, 0.21% hits. AID 651644, 2012; active = well fitted falling curve with a large enough effect; inconclusive = small, poorly fitted or top-dose-only effect; inactive = no such curve, though single readings can be large or run the other way;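 note: % is set by controls: 0 for no effect and ±100 for the full control effect; nearly all actives have a fitted effect of over 50% in size; the assay follows cell death caused by Vpr and the record does not say whether a fall means rescue or toxicity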
#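 Fission yeast strain RE007, carrying one chromosomally integrated HIV-1 vpr copy, was seeded at OD 0.01 in PMG+AL medium with 23 nL pinned compound. After 24 h at 30 °C and 99% humidity, viability was read by BacTiter-Glo luminescence.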
# Cruzain Triton: qHTS Assay for Promiscuous and Specific Inhibitors of Cruzain (with detergent); Cruzipain (Trypanosoma cruzi), P25779; purified cruzain, Z-FR-AMC fluorescence, 0.01% Triton; Potency, µM, for inactives: max response, negative = inhibition, hits mostly inhibitors; 200,000 compounds, 0.43% hits;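 note: plate controls were neutral wells for no effect and buffer without enzyme for full effect; nearly all actives have a fitted effect of over 40% in size; top concentration of the series not given in the record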
# Target sequence (P25779 123-467 limits assumed): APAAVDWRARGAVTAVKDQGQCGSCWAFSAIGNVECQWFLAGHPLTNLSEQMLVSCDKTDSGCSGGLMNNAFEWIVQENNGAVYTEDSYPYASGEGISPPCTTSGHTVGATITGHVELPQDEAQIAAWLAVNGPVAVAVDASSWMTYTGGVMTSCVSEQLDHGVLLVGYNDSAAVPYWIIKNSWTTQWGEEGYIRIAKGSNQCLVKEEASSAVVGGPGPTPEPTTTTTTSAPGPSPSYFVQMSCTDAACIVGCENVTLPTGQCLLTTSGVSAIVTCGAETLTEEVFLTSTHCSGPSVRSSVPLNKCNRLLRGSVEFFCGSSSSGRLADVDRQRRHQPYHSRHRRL
#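 Cruzain (1.5 nM) preincubated 15 min at RT with compound in 100 mM sodium acetate pH 5.5, 5 mM DTT, 0.01% Triton X-100. Reaction started with 2 uM Z-FR-AMC; AMC fluorescence (ex 360/em 450 nm) change over 60 s gave rate.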
# Marburg entry inh: qHTS for inhibitors of binding or entry into cells for Marburg Virus | Marburg virus pseudotyped entry inhibition, cell reporter; control for the full effect not named in the record; about a third of the inactives were read at about 46 µM | Potency, µM (top dose mostly 37.8 µM), for inactives: at the highest dose activity change, negative = inhibition, hits mostly inhibitors | 300,000 compounds, 1.8% hits | AID 540276, 2011; active = well fitted inhibition curve with a large enough effect; inconclusive = small, poorly fitted or top-dose-only effect, or effect the other way; inactive = flat fitted curve, though single readings scatter; tested in HEK293 cells; about a fifth of its hits are not listed in these tables; note: % is set by controls: 0 for no effect and ±100 for the full control effect; luciferase read-out
# Cruzain noTriton: qHTS Assay for Promiscuous and Specific Inhibitors of Cruzain (without detergent) | Cruzipain (Trypanosoma cruzi), P25779 | purified cruzain, Z-FR-AMC fluorescence, no detergent | Potency, µM, inactives show max response, negative = inhibition, most hits filed as inhibitors | 200,000 compounds, 2.3% hits;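 note: plate controls were enzyme without inhibitor for no effect and buffer without enzyme for full effect; nearly all actives have a fitted effect of over 40% in size; top concentration of the series not given in the record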
#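 Purified cruzain at 1.5 nM, pre-incubated 15 min with compound at room temperature in 100 mM sodium acetate pH 5.5, 5 mM DTT, 0.00005% Triton X-100. Reaction started with 2 uM Z-FR-AMC; AMC fluorescence increase over 60 s gives rate.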
# StopGo reporter: High Throughput Screening for Foot and Mouth Disease Virus Antivirals; human cells with a luciferase reporter of 2A StopGo recoding; control for the full effect not named in the record; Potency, µM (top dose mostly 57.9 µM), inactives show at the top dose signal change, negative = less light; 410,000 compounds, 1.2% hits; AID 1159524, 2015; active = well fitted falling curve with a large enough effect; inconclusive = small, poorly fitted or top-dose-only effect; inactive = no such curve, though single readings can be large or run the other way; tested in HEK293T cells; note: % is set by controls: 0 for no effect and ±100 for the full control effect; nearly all actives have a fitted effect of over 45% in size; luciferase light after 4 h
# NS1 function inh: qHTS Assay for Inhibitors of Influenza NS1 Protein Function; S. cerevisiae slowed by influenza A NS1, growth recovery by OD600; Potency, µM (top dose mostly 46.1 µM), inactives show at the top dose activity, positive = more growth; 270,000 compounds, 0.4% hits; active means well fitted rising curve with a large enough effect; inconclusive means small, poorly fitted or top-dose-only effect; inactive means no such curve, though single readings can be large or run the other way; note: nearly all actives have a fitted effect of over 50% in size
#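 S. cerevisiae expressing influenza A NS1, grown in glucose, washed, then diluted 1:100 into pH 6.0 -URA galactose medium with 23 nl compound. Growth recovery read as OD600; NS1-free strain serves as control.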
# SARS PLP yeast: qHTS of Yeast-based Assay for SARS-CoV PLP | S. cerevisiae expressing SARS-CoV PLpro, growth rescue; control for the full effect not named in the record | 330,000 compounds, 0.19% hits | AID 485353, 2010 | Potency, µM (series often up to 32.9 µM), for inactives: at the highest dose activity, positive = growth rescue; active means well fitted rising curve with a large enough effect; inconclusive means small, poorly fitted or top-dose-only effect; inactive means no such curve, though single readings can be large or run the other way; note: 0% is about no effect; nearly all actives have a fitted effect of over 55% in size; growth read by luminescence after 48 h
# Lassa entry inh: qHTS for Inhibitors of binding or entry into cells for Lassa Virus | Lassa virus pseudotype entry inhibition, cell reporter; control for the full effect not named in the record | Potency, µM (series often up to 37.9 µM), without a hit: at the highest dose activity change, negative = inhibition, most hits filed as inhibitors | 300,000 compounds, 1.2% hits | AID 540256, 2011; active means well fitted inhibition curve with a large enough effect; inconclusive means small, poorly fitted or top-dose-only effect, or effect the other way; inactive means flat fitted curve, though single readings scatter; tested in HEK293 cells; note: % is set by controls: 0 for no effect and ±100 for the full control effect; nearly all actives have a fitted effect of over 50% in size; luciferase read-out
# Numbers without * were called inactive; ? = inconclusive; / = no result given; & = joins results of further samples; [ ] = another dose, or the depositor's remark. Unless noted, calls come from the whole dose curve; as a rule, active = well fitted curve in the direction sought with a large enough effect; inconclusive = small, poorly fitted or top-dose-only effect, or another doubt; inactive = no such curve, though single readings can be large; an effect the other way counts as inactive or inconclusive. Potency is the fitted concentration of half-maximal effect. Outcome played no part in choosing rows (roughly 4.7% active in at least one column).
SMILES,RE007 growth inh,Cruzain Triton,Marburg entry inh,Cruzain noTriton,StopGo reporter,NS1 function inh,SARS PLP yeast,Lassa entry inh
COc1ccc(OC)c(NS(=O)(=O)c2ccc(NC(C)=O)cc2)c1,-13%,-1.0%,-22%,?,-22%,1%,-2%,?
CCC(=O)Nc1cccc(NC(=S)NC(=O)c2ccccc2Cl)c1,7%,-6.4%,?,-4%,22%,0%,-1%,12%
CCn1c(SCC(=O)N2CCCCCC2)nc2c([nH]c3ccccc32)c1=O,-11%,/,5%,/,0%,5%,?,?
CCn1c(SCC(=O)N2CCOCC2)nc2c([nH]c3ccccc32)c1=O,-4%,/,/,/,4%,4%,-1%,/
Cc1c(N2C(=O)/C(=C\c3ccc(N(C)C)cc3)N(C)C2=S)c(=O)n(-c2ccccc2)n1C,-14%,-9.1%,-25%,2%,-19%,10%,10%,-1%
COc1cccc(C(=O)NCC(=O)NCc2cc(=O)n(C)c(=O)n2C)c1OC,91%,/,?,/,-15%,-2%,-2%,?
COc1ccc(N2CCN(C(=O)Cn3nc(Cc4cccnc4)c4ccccc4c3=O)CC2)cc1,/,1.0%,-7%[46.1 µM],3%,-24%,/,/,10%[46.1 µM]
COc1cc(C2C(C#N)=C(C)NC(C)=C2C#N)cc(OC)c1OC,-17%,-1.5%,-3%[46.1 µM],-8%,-2%,5%,20%,11%[46.1 µM]
CCCCOC(=O)c1ccc(NC(=O)c2cc(=O)c3ccccc3o2)cc1,/,-0.7%,/,-13%,-22%,/,/,8%[46.1 µM]
O=[N+]([O-])c1cc(CN2CCCC2)c2cccnc2c1O,-9%,-1.4%,-9%,-2%,-1%,?,?,-1%
Cc1ccc(-c2noc(CNC(=O)c3ccoc3C)n2)cc1,22%,/,1%[46.1 µM],/,-2%,-8%,-8%,20%[46.1 µM]
COc1ccc([N+](=O)[O-])cc1N(CC(=O)NCCSc1ccc(C)cc1)S(C)(=O)=O,6%,/,-3%[46.1 µM],/,-10%,0%,1%,-6%
COc1cc(C(=O)n2nc(-c3ccco3)nc2NCc2ccc(Cl)cc2)cc(OC)c1OC,/,-3.0%,?,-12%,24%,/,/,?
CC1CCCCN1C(=O)CSc1n[nH]c(-c2ccccc2Cl)n1 (configuration not stated),/,3.1%,/,-2%,28%,/,/,1%[46.1 µM]
CCCCOC(=O)C1=C(C)NC(=O)NC1c1ccc([N+](=O)[O-])s1 (configuration not stated),30%,-7.8%,?,-6%,-16%,10%,11%,-18%
Cc1cc(C)cc(N2CCCC2=O)c1,14%,-1.8%,-2%,12%,14%,6%,23%,-7%
C=C(C)C(=O)Nc1cccc(C2=NOC3(C2)C[C@@H](C(N)=O)N(C(=O)/C(C)=C/C)C3)c1 (some centres not stated),0%,/,/,/,5%,1%,-4%,/
CCCCn1c(N)c(N(CC(C)C)C(=O)c2cccc(S(=O)(=O)N(C)c3ccc(C)cc3)c2)c(=O)[nH]c1=O,15%,/,-28%,/,-18%,/,-8%,-7%
FC(F)(F)c1cccc(Nc2cc(-c3ccccc3)nc3ncnn23)c1,-7%,/,/,/,-16%,3%,-4%,/
CN(Cc1ccccc1)c1nc2c(c(=O)[nH]c(=O)n2C)n1Cc1ccccc1Cl,-8%,-0.1%,-22%,-10%,-20%,-3%,10%,?
COC(CNC(=O)C1CCN(C(=O)c2cc3oc(C)cc3n2Cc2c(F)cccc2Cl)CC1)OC,-5%,/,?,/,0%,/,8%,?
Cc1ncoc1C(=O)N1CCCC(C(=O)c2ccc(C(F)(F)F)cc2)C1 (configuration not stated),2%,/,?,/,0%,5%,1%,20%
Cn1c(CC(=O)Nc2ccccc2F)nnc1SCC(=O)NC1CCCC1,-4%,/,-1%[46.1 µM],/,21%,3%,2%,/
CNC(=O)NC(=O)CSc1nc2sccc2c(=O)n1-c1ccccc1,9%,/,?,/,20%,4%,-2%,-10%[46.1 µM]
Cn1c(=O)c(C(=O)CN2CCc3ccccc32)c(N)n(Cc2ccccc2)c1=O,-15%,-7.8%,-3%,?,-20%,23%,-6%,?
COc1cccc(CN2CCN(Cc3cccn3-c3cccnc3)CC2CCO)c1 (configuration not stated),-14%,/,/,/,-18%,1%,1%,/
O=C(Nc1cccc(-c2nc3cccnc3s2)c1)C1c2ccccc2Oc2ccccc21,3%,-0.2%,20%,20µM*,?,?,-4%,15%
CC1(C)CC2(CCO1)OC(=O)CC2C(=O)Nc1c(Cl)cccc1Cl (configuration not stated),2%,/,/,/,-20%,0%,1%,/
COc1ccc2c3c1OC1CC(O)C=CC31CCN(C)C2 (configuration not stated),-17%&-11%,/,0%&0%[46.1 µM],/,41%&23%[activator],-10%&0%,-8%&0%,1%[46.1 µM]
COc1ccc(CN2C(=O)C(NC(=O)c3ccccc3C)(C(F)(F)F)N=C2c2ccccc2)cc1 (configuration not stated),/,-4.8%,?,?,-23%,/,/,?
Cc1cccc(NC2=C(C#N)C(=O)NC3(CCCC3)S2)c1,-1%,/,/,/,12%,6%,1%,/
CCOc1cccc(OCCOCCNC(C)(C)C)c1,9%,-1.1%,0%,2%,-10%,10%,5%,0%
Cc1ccccc1N(CC(=O)Nc1ccc(F)cc1)S(C)(=O)=O,-28%,3.9%,10%[46.1 µM],6%,50%[activator],0%,3%,?
CC(C)(C)c1nn(-c2ccccc2)c2[nH]c(=O)c(CNCc3ccco3)cc12,13%,-6.5%,-13%,4%,0%,-8%,-14%,0%
COCCNC(=O)c1onc(CSc2ccccc2)c1C(=O)O,7%,3.7%,/,-11%,-2%,-1%,5%,/
Cc1ccc(Nc2nc(N)nc(CSc3nncn3C)n2)cc1,17%,1.7%,?,-23%,38%[activator],13%,-23%,10%
CCOC(=O)NCC(C#CCN(CC)CC)N(CC)CC (configuration not stated),3%,3.5%,6%[46.1 µM],2%,10%,?,4%,-9%
Clc1ccc(Cc2noc(Cc3ccccc3)n2)cc1Cl,-1%,-6.6%,0%,-4%,27%,-16%,-5%,22%
CCOC(=O)C1(Cc2ccccc2Cl)CCN(S(C)(=O)=O)CC1,-9%,/,?,/,0%,-5%,-1%,0%
N#Cc1ccc(NC(=O)CN2C(=O)NC3(CCCC3)C2=O)cc1Cl,1%,/,-12%[46.1 µM],/,6%,-1%,-2%,4%
COc1ccc(NC(=O)CN2CCN(Cc3ccccc3)S2(=O)=O)c(OC)c1,/,0.3%,/,1%,0%,/,/,-3%[46.1 µM]
COCCCn1c(-c2cccc(Cl)c2)nc2c1c(=O)[nH]c(=O)n2Cc1ccccc1,-12%,/,-1%[46.1 µM],/,-12%,1%,1%,?
Cc1onc(-c2ccccc2Cl)c1C(=O)Nc1cccc2nsnc12,10%,-13%,-9%[46.1 µM],9%,-9%,4%,1%,-5%
COc1ccc(N2CCn3c2nc2c3c(=O)n(CCCc3ccccc3)c(=O)n2C)c(OC)c1,-1%,-6.8%,?,?,13µM*,-11%,-7%,?
O=C(CCS(=O)(=O)Cc1ccc(Cl)cc1)NCCCN1CCOCC1,3%,-3.5%,-2%,0%,4%,-1%,1%,14%
COC(=O)c1ccc(OC(=O)/C=C/c2ccco2)cc1,0%,/,-7%[46.1 µM],/,23%,-8%,2%,-1%[46.1 µM]
O=C(NCc1ccccn1)c1cc2ccccc2oc1=O,11%,-1.1%,19%,-1%,0%,-11%,-2%,-2%
COc1cccc(CNC(=O)Cc2c(C(=O)O)[nH]c3ccccc23)c1,2%,-3.8%,18%,0%,-7%,-2%,2%,7%
CC(=O)Nc1cc(NC(=O)C2C3C=CC(C3)C2C(=O)O)ccc1Cl (configuration not stated),-7%,0.0%,5%,5%,-20%,10%,2%,-11%
CC1(C)Cc2nc3sc(C(=O)NCCCO)c(N)c3cc2CS1,10%,/,?,/,53%[activator],5%,0%,/

# Other structures:
SMILES,RE007 growth inh,Cruzain Triton,Marburg entry inh,Cruzain noTriton,StopGo reporter,NS1 function inh,SARS PLP yeast,Lassa entry inh
CCOC(=O)c1ccccc1Nc1cc(C)nc2nc(-c3ccco3)nn12,/,-8.4%,/,?,0%,/,/,?
Cc1ccc2c(c1)-c1onc(C(=O)N3CCN(c4cccc(C)c4C)CC3)c1CO2,/,-1.5%,/,-7%,-18%,/,/,15%[46.1 µM]
COc1ccc(C(=O)NCCN2C(=O)S/C(=C\c3cccnc3)C2=O)cc1[N+](=O)[O-],3%,/,-2%[46.1 µM],/,3%,-7%,-2%,4%[46.1 µM]
N/C(=N\OC(=O)c1cccs1)c1cccc([N+](=O)[O-])c1,2%,/,?,/,22%,/,-9%,?
COc1cc2cc(CN(CCCN3CCOCC3)Cc3nnnn3Cc3ccccc3)c(=O)[nH]c2cc1OC,-16%,/,?,/,-1%,3%,0%,-17%
CCOC(=O)Cc1ccc(NC(=O)N2CC(CC)Oc3ccccc32)cc1 (configuration not stated),/,-1.9%,/,24%,-20%,/,/,-18%[46.1 µM]
C=CCNC(=S)NNC(=O)c1ccc(OCCC)cc1,-1%,-2.6%,18%,-10%,-25%,10%,23%,-3%
Clc1ccc2c(c1)C(c1ccccc1Cl)=NCc1nnc(Br)n1-2,5%,-5.5%,?,-6%,-19%,1%,?,-18%
CC(=O)OCC1OC(Nc2cccc(C)c2)C(OC(C)=O)C(OC(C)=O)C1OC(C)=O (configuration not stated),16%,-0.5%,14%,28%,-13%,-4%,1%,20%
CCN1CCN(C(=O)C2(NC(=O)Nc3cccc(F)c3)CCCCC2)CC1,14%,-0.7%,1%,-8%,-10%,3%,8%,2%
